T cruzi inh – blocks replication of Trypanosoma cruzi; T. cruzi beta-gal in NIH3T3, luminescence, 90 h; inhibition, % (test concentration not listed); 300,000 tested, 1.4% active;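 active = mean inhibition across valid replicates above about 55%, limit read from the data; inconclusive = mean below that limit but half or more replicates reach it; inactive = mean below it, under half of replicates reach it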;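 note: signal also drops with host cell toxicity which is not excluded here; 0% = plate median of DMSO wells and 100% = zero luminescence signal; higher percent means less beta-gal luminescence so fewer parasites; stock transfer was 50 nL into about 50 µL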
Calb FLC – C. albicans growth modulation with fluconazole. C. albicans CaCi-2 (fluconazole-resistant clinical isolate) + fluconazole, Alamar Blue growth, 48 h. growth inhibition, % (concentration not given with the values). 300,000 tested, 0.57% active. AID 1979;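 active = most replicates above 75%; inconclusive = exactly half above 75%; inactive = most below 75%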;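 note: all wells also contain fluconazole at 8 µg/ml as a sub-toxic cotreatment; 0% = median of DMSO wells and 100% = median of geldanamycin control wells; wells of about 8 µL received 7.5 nL stock; the first replicate is given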
Vif TR-FRET – inhibitors of Vif binding to APOBEC3G peptide, primary screen, biochemical, TR-FRET, GST-Vif 1-94, biotin-A3G peptide, dose response retest (AID 1117319). TR-FRET GST-Vif / biotin-A3G peptide binding; higher % means a stronger effect; test concentration not given here; strong numbers were not always called active. one-dose inhibition, %; IC50 in µM for titrated hits. 260,000 tested, 0.57% active;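 active = above the screen mean plus three standard deviations and confirmed in dose response; inconclusive = results disagree or hit not tested in dose response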;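 note: Vif residues 1-94 fused to GST binding biotinylated APOBEC3G peptide 110-148; 0% = full assay without inhibitor and 100% = GST in place of GST-Vif; retest series ran down from 100 µM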
Beta apoptosis – beta cell apoptosis inhibition; INS-1E cytokine-induced death, ATP luminescence, 48 h; percent of positive-control rescue, neutral wells zero; protection from apoptosis, % (no concentration beside the values); 300,000 tested, 0.8% active;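 active = all replicates at 75% or more, or half of them and the mean; inconclusive = half reach 75% but not the mean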;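 note: 0% = cytokine-treated negative control wells and 100% = positive control rescue; higher means more ATP so stronger rescue from cytokine killing; wells of about 40 µL received 100 nL stock; the first replicate is given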
RanGTP-Imp inh – disruptors of Ran-importin-beta complex formation – biochemical, FRET, CFP-Ran, YFP-importin-beta, homogeneous, primary screen; cell-free CFP-Ran/YFP-importin-beta FRET ratio; inhibition, % (concentration not given with the values); 300,000 tested, 1.1% active; AID 2216;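 active = most replicates above 15%; inconclusive = exactly half above 15%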;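 note: 0% = DMSO wells and 100% = Ran loaded with GDP instead of GTP; wells of about 40 µL received 100 nL stock; the first replicate is given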
A1 inh – inhibitors of the anti-apoptotic protein A1, read as caspase activation | AID 2462 | 330,000 tested, 0.066% active | caspase activation, % (test concentration not listed) | MEF A1-2A-BIM cells, Caspase-Glo 3/7 luminescence, 3 h; percent of clofoctol response, vehicle zero;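 active = over half of replicate activation scores above 10%, or exactly half above 10 with the replicate mean above 10; inconclusive = replicate mean below 10 yet half the replicates above 10; inactive = over half of replicates below 10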;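 note: wells of about 30 µL received 50 nL stock; many hits fall short of the cut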
MLL AF4-AF9 inh – MLL-AF4/AF9 protein interaction inhibition. AlphaScreen, biotin-AF4 peptide binding to FLAG-AF9. inhibition, % at 10 µM. 350,000 tested, 0.47% active;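 active = every replicate reaching a set inhibition limit, whatever the replicate mean, cut at about 25% in these data; inconclusive = mean inhibition reaches that limit but some replicates miss it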;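 note: 0% = plate neutral control median and 100% = total signal loss; the record names both 10 and 1 µM as test concentration; the first replicate is given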
Target sequence (P42568 whole entry, looked up): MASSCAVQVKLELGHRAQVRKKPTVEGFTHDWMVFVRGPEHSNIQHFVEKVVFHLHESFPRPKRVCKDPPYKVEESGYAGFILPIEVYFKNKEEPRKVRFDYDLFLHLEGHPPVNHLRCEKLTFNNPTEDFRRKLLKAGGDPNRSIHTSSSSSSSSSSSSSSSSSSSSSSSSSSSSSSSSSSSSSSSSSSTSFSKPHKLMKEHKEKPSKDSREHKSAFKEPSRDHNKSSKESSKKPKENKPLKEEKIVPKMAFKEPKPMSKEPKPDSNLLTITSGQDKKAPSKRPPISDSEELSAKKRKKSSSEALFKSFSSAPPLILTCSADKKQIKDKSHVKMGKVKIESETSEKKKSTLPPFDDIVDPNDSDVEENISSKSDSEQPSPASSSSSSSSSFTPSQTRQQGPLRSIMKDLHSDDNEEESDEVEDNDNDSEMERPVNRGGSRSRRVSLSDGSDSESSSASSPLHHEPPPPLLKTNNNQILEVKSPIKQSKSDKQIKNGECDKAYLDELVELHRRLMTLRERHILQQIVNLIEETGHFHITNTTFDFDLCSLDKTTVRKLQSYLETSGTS
LANA-H2B inh – blocks KSHV LANA binding to histone H2A/H2B; inhibition, % (concentration not given with the values); cell-free LANA-H2A/H2B peptide, fluorescence polarization; Q9QR71; AID 2629; 320,000 tested, 0.6% active; in the data active = inhibition mostly above about 10%, no sharp cut-off; inactive = mostly below about 6.7%;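 note: stock transfer was 7.5 nL into about 10 µL; 0% = median of vehicle wells and 100% = median of positive control wells; one replicate is shown; the record names a cut of 25% in any replicate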
* hit, by the source's call; ? = inconclusive; . = not tested or not shown. No enrichment for hits; overall some 4.3% were active at least once.

SMILES	T cruzi inh	Calb FLC	Vif TR-FRET	Beta apoptosis	RanGTP-Imp inh	A1 inh	MLL AF4-AF9 inh	LANA-H2B inh
C=CC[C@@H](CC(=O)OC(C)(C)C)C(=O)OC[C@H]1CCCN1C(=O)[C@@H](CC=C)CC(=O)N(CCO)Cc1ccccc1	.	.	.	-8	.	2.0	-3.2	-3.4
Cc1ccc(S(=O)(=O)/N=C2/NC(=O)/C(=C/c3ccccn3)S2)cc1	7	-5	11%	-1	7.7	0.6	-0.3	1.2
COCc1cc(=O)[nH]c(Nc2nc(C)c3cc(OC)ccc3n2)n1	-5	6	2%	-3	3.3	-0.2	.	0.8
Cc1nnc(SCC(=O)c2c(N)n(C3CC3)c(=O)[nH]c2=O)n1-c1ccccc1	.	.	.	-1	.	0.7	-1.4	0.9
COC(=O)c1cc(=O)n(-c2c(Cl)cc(C(F)(F)F)cc2Cl)[nH]1	4	-3	.	-1	1.7	0.3	-13	1.3
COc1ccc(-n2nnnc2-c2ccc(S(C)(=O)=O)cc2Cl)cc1	-15	16	-5%	2	-0.5	0.4	-2.5	-0.6
CN(C)S(=O)(=O)c1ccc(N2CCCC2)c(C(=O)Nc2nc3c(ccc4ccccc43)s2)c1	50	0	-36%	2	7.0	1.6	.	-6.5
O=C(NCCN1CCCCC1)c1cc(COc2c(F)cccc2F)on1	2	19	8%	-6	7.4	0.3	-3.7	1.7
CCOc1cccc(CN2CCN(c3cccc(C(F)(F)F)c3)CC2)c1O	38	20	28%	5	0.0	0.5	.	-12
COc1ccc(CNc2oc(Cc3cccc4ccccc34)nc2C#N)cc1	33	-6	9%	-5	-6.5	-0.2	.	-4.2
COc1ccc(NC(=O)c2csc3c2CCCCC3)c(OC)c1	1	6	-9%	6	-3.4	0.1	2.9	-0.2
CCOc1cc(N2CCOCC2)c(OCC)cc1NC(=O)CN1CCCC(C)C1 (stereo not drawn)	15	3	9%	1	-4.4	0.4	14	-3.6
N#Cc1cc2ccccc2n2nnnc12	-8	-8	.	0	0.0	-0.2	-1.4	0.4
Cc1ccc(S(=O)(=O)N2CCN(C(=O)CSc3ncn[nH]3)CC2)cc1	.	.	4%	2	.	0.2	1.3	-0.5
COc1ccc(CCNC(=O)CN2CCN(S(=O)(=O)c3ccc(Cl)cc3)CC2)cc1OC	-13	2	2%	-2	2.2	0.8	.	3.9
COC(=O)C1=C(C)N(C)C(=S)N(C)C1c1cccc(Br)c1 (stereo not drawn)	10	-2	1%	-2	-0.9	0.5	0.9	-2.1
Cc1nc2ccccc2c(=O)n1/N=C/c1ccc(O)c(O)c1O	9	12	.	-5	-1.3	-0.7	-11	-1.6
O=C(Nc1ccccn1)c1ccc(NC(=O)c2ccco2)cc1	-6	-18	4%	4	-2.3	-7.9	.	-6.2
CCCC(C)C(=O)Nc1nc(C)c(-c2csc(Nc3ccc(Cl)cc3)n2)s1 (stereo not drawn)	51	1	1%	100*	?	-1.6	3.3	-2.6
COc1ccc(N(CC(=O)NN=C2CCCC2)S(=O)(=O)c2ccccc2)cc1Cl	-4	42	.	-4	-2.7	-0.8	.	0.3
CN(Cc1cnccn1)C(=O)C1CCC(=O)N(CCc2ccccc2)C1 (stereo not drawn)	-1	1	.	-6	4.9	-0.3	6.6	-1.8
O=C(Nn1cnnc1)c1ccc(Cl)cc1	-12	0	?	-4	9.5	0.3	2.3	-5.9
COc1ccc(/C=C2\SC(N3CCCCC3)=NC2=O)cc1OC	7	4	.	0	-4.4	-0.5	-1.0	5.0
CC(C)c1ccc(NC(=O)CNS(=O)(=O)c2ccc(F)cc2)cc1	11	-6	13%	6	-3.4	-0.2	-1.3	-1.0
O=C(NC1CCN(Cc2ccccc2)CC1)c1cc(-c2ccccn2)nc2ccccc12	14	-17	27%	1	-3.1	1.3	.	2.1
Cc1ccc(Cl)c(OCC(=O)Nc2sc(C)c(C)c2C#N)c1	3	-5	-1%	3	-1.6	1.6	1.7	0.7
O=C1CSc2nc3ccccc3n21	-19	-3	-3%	.	-2.0	.	.	.
NC1(N)OC(CN2C(=O)c3ccccc3C2=O)CS1 (stereo not drawn)	-14	-8	8%	-5	-2.1	0.0	.	3.2
COc1ccnc(Oc2ccc3ccccc3c2)c1C#N	2	-1	0%	6	-4.8	-0.9	1.3	-3.0
CCn1c(SCC(=O)Nc2ncc(C(F)(F)F)cc2Cl)nnc1-c1cccc(C)c1	6	2	14%	-4	2.2	0.5	.	-2.1
CC(SC1CCCC1)C(=O)Nc1ccnn1C(C)C (stereo not drawn)	-2	-9	-3%	-2	-2.5	-0.2	.	0.9
Cc1nn(C(C)(C)C)c(NC(=O)c2ccc(Cl)cc2Cl)c1Br	4	-7	-10%	0	-3.1	0.8	-1.3	-2.9
COc1ccc(S(=O)(=O)N2c3ccccc3NC(=O)CC2C)cc1 (stereo not drawn)	3	-4	.	-6	-0.4	-0.7	-11	-1.2
CCCNC(=O)Cn1c(=O)n(CC(=O)N2CCCCC2)c(=O)c2sccc21	-30	-2	.	-9	5.8	0.4	?	-3.6
CC1(C)Cc2c(C#N)c(N)sc(=S)c2CO1	0	-6	19%	.	-0.9	-0.3	.	-0.1
Cc1ccc(C)c(-n2nnnc2SCC(=O)c2ccc3c(c2)NC(=O)CO3)c1	7	-12	-7%	7	-0.9	-0.7	.	1.6
COCCNC(=O)c1ccccc1NC(=O)c1cccc([N+](=O)[O-])c1C	-4	10	-4%	-6	2.0	-0.5	-1.7	5.4
CCc1ccc2[nH]c3nc(SCC(=O)NNC(=O)c4ccc(C(C)(C)C)cc4)nnc3c2c1	32	9	-7%	20	-4.2	-0.7	.	-0.6
CC1CCN(C(=O)Cn2c3ccc(F)cc3c3nc4n(c(=O)c32)CCCS4)CC1	-7	-9	-4%	5	-0.2	0.9	.	-1.7
O=C(Nc1ccc(-c2nc3cccnc3s2)cc1)c1ccco1	-3	-5	18%	-4	-2.9	-10	-5.2	-3.1

Some of the entries above in a different format.
The line under a structure holds: T cruzi inh	Calb FLC	Vif TR-FRET	Beta apoptosis	RanGTP-Imp inh	A1 inh	MLL AF4-AF9 inh	LANA-H2B inh
> CC1(C)Cc2c(C#N)c(N)sc(=S)c2CO1
→ 0	-6	19%	.	-0.9	-0.3	.	-0.1
> Cc1ccc(C)c(-n2nnnc2SCC(=O)c2ccc3c(c2)NC(=O)CO3)c1
→ 7	-12	-7%	7	-0.9	-0.7	.	1.6
> COCCNC(=O)c1ccccc1NC(=O)c1cccc([N+](=O)[O-])c1C
→ -4	10	-4%	-6	2.0	-0.5	-1.7	5.4
> CCc1ccc2[nH]c3nc(SCC(=O)NNC(=O)c4ccc(C(C)(C)C)cc4)nnc3c2c1
→ 32	9	-7%	20	-4.2	-0.7	.	-0.6
> CC1CCN(C(=O)Cn2c3ccc(F)cc3c3nc4n(c(=O)c32)CCCS4)CC1
→ -7	-9	-4%	5	-0.2	0.9	.	-1.7
> O=C(Nc1ccc(-c2nc3cccnc3s2)cc1)c1ccco1
→ -3	-5	18%	-4	-2.9	-10	-5.2	-3.1

(listing goes on)
SMILES	T cruzi inh	Calb FLC	Vif TR-FRET	Beta apoptosis	RanGTP-Imp inh	A1 inh	MLL AF4-AF9 inh	LANA-H2B inh
CCSc1nnc(NC(=O)C2Cc3ccccc3CN2C(=O)c2ccco2)s1 (stereo not drawn)	8	3	17%	-10	-5.3	0.4	.	-2.8
Cc1cc(C)n(CC(=O)NNC(=O)C2CC(=O)N(Cc3ccccc3Cl)C2)n1 (stereo not drawn)	-14	-9	.	-13	-2.4	-0.1	-7.9	5.3
Cc1ccn2cc(CNC(=O)c3ccc(Br)o3)nc2c1	18	-4	4%	0	2.8	0.9	-23	-2.6
CC(CN1CCCC1)OC(=O)Cc1ccc(Cl)cc1 (stereo not drawn)	-18	-10	4%	.	2.6	0.4	1.1	-2.4
O=C(Cc1cccs1)NNC(=O)C12CC3CC(CC(C3)C1)C2	-1	-33	5%	1	-1.5	-0.6	-0.2	3.7
Cc1ccc(/C(COc2ccccc2O)=N\O)cc1	9	-22	-4%	-6	7.8	0.1	.	2.8
COC(=O)COc1ccc(/C=C2\SC(=O)N(CC(=O)Nc3ccccc3F)C2=O)cc1	5	3	.	.	-1.7	0.0	-0.9	-3.0
O=C(CCN1C(=O)S/C(=C\C=C\c2ccccc2)C1=O)Nc1ccc(O)cc1	-18	-8	.	-5	1.7	0.1	5.2	-0.3
CC/C(=N\NC(=S)Nc1cc(C)ccc1C)c1ccc(OC(F)F)cc1	24	-5	?	2	0.9	0.4	.	1.9
COc1cccc(CN2CCNC(=O)C2CC(=O)NCCCC2CCCC2)c1OC (stereo not drawn)	-10	-7	-4%	-6	3.7	1.8	-0.3	2.6
CN(C(=S)NC1=CCS(=O)(=O)C1)C1CCCCC1	0	2	0%	0	-0.7	-0.2	.	3.6
CN1C(=O)N(C)C2(C)CC1(C)N(C)C(=O)N2C	6	-27	2%	1	1.4	1.0	.	2.8
O=C1C(=O)N(CCCN2CCOCC2)C(c2ccc(F)cc2)/C1=C(\O)c1ccc2c(c1)OCCO2 (stereo not drawn)	8	11	.	-8	-2.0	-0.2	1.1	-3.5
Cc1ccccc1CNC(=O)Nc1cccs1	.	.	10%	-10	.	0.8	.	-0.6
O=C(N/N=C/c1ccccc1)c1ccc(OCc2ccccc2)cc1	-13	17	-8%	4	0.1	-0.7	-1.3	-1.4
COc1ccc(N(C(=O)c2ccco2)S(=O)(=O)c2ccc(F)cc2)cc1	-13	4	.	4	5.4	2.3	.	-1.6
CCOC(=O)Cn1ncc2c3ccccc3n(CC(=O)OCC)c2c1=O	8	-1	-4%	-9	7.1	0.2	-2.0	4.7
COC(=O)NNC(=O)C1CCC(C)CC1 (stereo not drawn)	-17	14	22%	-8	-1.4	0.1	1.3	-1.3
CCOC(=O)c1c(N)c2cc([N+](=O)[O-])cnc2n1C	5	-6	5%	6	3.5	0.4	.	5.5
COc1cc(OC)cc(C(=O)NNC(=S)Nc2ccccc2OC)c1	16	-7	6%	-3	1.9	-3.0	2.2	1.8
CCN(CC)C(=O)COCc1cc(-c2ccc3c(c2)OCO3)on1	-8	-4	-2%	-3	1.9	-0.4	-1.7	1.1
Cc1ccc(Cl)cc1-n1c(=O)cc(N2CC(C)OC(C)C2)[nH]c1=O (stereo not drawn)	-9	-8	4%	1	56*	-0.3	.	-7.1
O=C(/C=C/c1ccc(Br)cc1)c1ccc(NC2=NCCCS2)cc1	45	11	.	36	-5.4	?	-1.8	-4.4
O=C(Cn1nc(C(=O)O)c2ccccc2c1=O)Nc1ccc2c(c1)OCO2	-5	-3	.	13	4.6	-0.1	2.7	4.9
COc1ccccc1Oc1cn[nH]c1-c1ccc(O)cc1O	-12	-7	.	-2	-0.1	0.4	6.6	-0.4
Cc1c(Cc2ccccc2)c(=O)oc2c(O)c(O)ccc12	-42	108*	.	.	-0.7	.	-5.5	.
CCOc1ccc(Cl)cc1S(=O)(=O)N1CCCC1	-12	-1	-9%	-2	3.4	-0.5	.	0.2
COCc1nnc(NC(=O)c2cc(Cl)ccc2OC)s1	-5	?	31%	-3	2.4	-1.0	.	0.7

Bioassay records deposited in PubChem by several laboratories.
